High-throughput results as filed in PubChem BioAssay.
SARS PLP yeast – inhibitors of SARS-CoV papain-like protease in yeast | S. cerevisiae expressing SARS-CoV PLpro, growth rescue; control for the full effect not named in the record | Potency, µM (series often up to 32.9 µM), for the others: at the highest dose activity, positive = growth rescue | 330,000 tested, 0.19% active | AID 485353; active means well fitted rising curve with a large enough effect; inconclusive means small, poorly fitted or top-dose-only effect; inactive means no such curve, though single readings can be large or run the other way; further: 0% is about no effect; nearly all actives have a fitted effect of over 55% in size; growth read by luminescence after 48 h
RE007 growth inh – less growth of the S. pombe RE007 Vpr strain; S. pombe RE007 Vpr strain, BacTiter-Glo ATP luminescence, 24 h; control for the full effect not named in the record; Potency, µM (top dose mostly 92.2 µM), without a hit: at the highest dose activity change, negative = less growth; 360,000 tested, 0.21% active; AID 651644; active = well fitted falling curve with a large enough effect; inconclusive = small, poorly fitted or top-dose-only effect; inactive = no such curve, though single readings can be large or run the other way;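 further: on the % scale 0 is the no-effect control and ±100 the full control effect; nearly all actives have a fitted effect of over 50% in size; the assay follows cell death caused by Vpr and the record does not say whether a fall means rescue or toxicity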
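Fission yeast strain RE007, carrying one chromosomally integrated HIV-1 vpr copy, was seeded at OD 0.01 in PMG+AL medium with 23 nL pinned compound. After 24 h at 30 °C and 99% humidity, viability was read by BacTiter-Glo luminescence.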
Cruzain inh Det – inhibitors of Trypanosoma cruzi cruzain with detergent | AID 1478 | Potency, µM, without a hit: max response, negative = inhibition, hits mostly inhibitors | P25779 | purified cruzain, Z-FR-AMC fluorescence, 0.01% Triton | 200,000 tested, 0.43% active;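 further: plate controls were neutral wells for no effect and buffer without enzyme for full effect; nearly all actives have a fitted effect of over 40% in size; top concentration of the series not given in the record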
Target sequence (P25779 123-467 limits assumed): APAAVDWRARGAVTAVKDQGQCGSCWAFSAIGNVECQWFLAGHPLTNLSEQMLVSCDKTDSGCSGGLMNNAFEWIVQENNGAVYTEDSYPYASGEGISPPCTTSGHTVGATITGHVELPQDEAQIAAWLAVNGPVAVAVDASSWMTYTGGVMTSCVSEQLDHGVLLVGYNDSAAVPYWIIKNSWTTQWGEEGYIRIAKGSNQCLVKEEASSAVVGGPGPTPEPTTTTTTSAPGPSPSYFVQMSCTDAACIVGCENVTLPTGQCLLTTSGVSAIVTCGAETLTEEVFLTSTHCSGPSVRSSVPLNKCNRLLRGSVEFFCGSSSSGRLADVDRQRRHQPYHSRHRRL
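Read-out: AMC fluorescence (360 nm excitation, 450 nm emission), four reads over 2 min, first-to-third difference used. Conditions: cruzain 1.5 nM, Z-FR-AMC 2 uM, pH 5.5 acetate, 5 mM DTT, 0.01% Triton X-100.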
StopGo reporter – FMDV 2A StopGo reporter, luciferase signal; human cells with a luciferase reporter of 2A StopGo recoding; control for the full effect not named in the record; Potency, µM (titrated, usually from 57.9 µM), for inactives: top-dose signal change, negative = less light; 410,000 tested, 1.2% active; AID 1159524; active = well fitted falling curve with a large enough effect; inconclusive = small, poorly fitted or top-dose-only effect; inactive = no such curve, though single readings can be large or run the other way; tested in HEK293T cells; further: on the % scale 0 is the no-effect control and ±100 the full control effect; nearly all actives have a fitted effect of over 45% in size; luciferase light after 4 h
Cruzain noTriton – blocks cruzain activity in detergent-free assay; P25779; Potency, µM, for inactives: max response, negative = inhibition, most hits filed as inhibitors; purified cruzain, Z-FR-AMC fluorescence, no detergent; 200,000 tested, 2.3% active;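 further: plate controls were enzyme without inhibitor for no effect and buffer without enzyme for full effect; nearly all actives have a fitted effect of over 40% in size; top concentration of the series not given in the record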
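Purified cruzain at 1.5 nM, pre-incubated 15 min with compound at room temperature in 100 mM sodium acetate pH 5.5, 5 mM DTT, 0.00005% Triton X-100. Reaction started with 2 uM Z-FR-AMC; AMC fluorescence increase over 60 s gives rate.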
NS1 function inh – influenza NS1 inhibition; S. cerevisiae slowed by influenza A NS1, growth recovery by OD600; Potency, µM (series often up to 46.1 µM), without a hit: at the highest dose activity, positive = more growth; 270,000 tested, 0.4% active; AID 2326; active means well fitted rising curve with a large enough effect; inconclusive means small, poorly fitted or top-dose-only effect; inactive means no such curve, though single readings can be large or run the other way; further: nearly all actives have a fitted effect of over 50% in size
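Read-out: OD600 growth recovery of NS1-expressing budding yeast. Cells grown overnight at 30C in -URA glucose medium, washed, resuspended and diluted 1:100 in 2% galactose assay medium, pH 6.0. Same strain lacking NS1 served as positive control.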
MARV entry inh – inhibitors of Marburg virus binding or cell entry | Potency, µM (highest dose often 37.8 µM), for inactives: at the highest dose activity change, negative = inhibition, usual class: inhibitors | AID 540276 | Marburg virus pseudotyped entry inhibition, cell reporter; control for the full effect not named in the record; about a third of the inactives were read at about 46 µM | 300,000 tested, 1.8% active; active = well fitted inhibition curve with a large enough effect; inconclusive = small, poorly fitted or top-dose-only effect, or effect the other way; inactive = flat fitted curve, though single readings scatter; tested in HEK293 cells; about a fifth of its hits are not listed in these tables; further: on the % scale 0 is the no-effect control and ±100 the full control effect; luciferase read-out
Lassa entry inh – inhibitors of Lassa virus binding or cell entry; Lassa virus pseudotype entry inhibition, cell reporter; control for the full effect not named in the record; AID 540256; 300,000 tested, 1.2% active; Potency, µM (series often up to 37.9 µM), without a hit: at the top dose activity change, negative = inhibition, usual class: inhibitors; active means well fitted inhibition curve with a large enough effect; inconclusive means small, poorly fitted or top-dose-only effect, or effect the other way; inactive means flat fitted curve, though single readings scatter; tested in HEK293 cells; further: on the % scale 0 is the no-effect control and ±100 the full control effect; nearly all actives have a fitted effect of over 50% in size; luciferase read-out
An asterisk follows results filed as active; ? = inconclusive; . = no result given; [ ] = another dose, or the depositor's remark. Unless noted, the call rests on the fitted dose curve; in most records, active means well fitted curve in the direction sought with a large enough effect; inconclusive means small, poorly fitted or top-dose-only effect, or another doubt; inactive means no such curve, though single readings can be large; an effect the other way counts as inactive or inconclusive. Potency means the concentration at half of the fitted maximal effect. No enrichment for hits; about 4.7% have a hit in one of these screens.

SMILES	SARS PLP yeast	RE007 growth inh	Cruzain inh Det	StopGo reporter	Cruzain noTriton	NS1 function inh	MARV entry inh	Lassa entry inh
Cc1cccc(C(=O)N2CCCCC2CCN2CCCCC2)c1 (configuration not stated)	.	.	1.3%	0%	-14%	.	?	-11%[46.1 µM]
O=C(NCc1ccco1)Nc1ccc(Br)cc1	-1%	29%	-9.7%	25%	-8%	-35%	?	19%
COc1ccc(NC(=O)c2cccc(F)c2)cc1Cl	-14%	1%	-2.3%	28%	-14%	-80%	3%	14%
CC(C)c1nnc(NC(=O)CCS(=O)(=O)c2nc(-c3cccs3)cc(C(F)(F)F)n2)s1	5%	-10%	-7.5%	14µM*	?	2%	13µM*	?
O=C(Cn1c(=O)cnc2ccccc21)N1CCCc2ccccc21	0%	11%	.	-26%	.	-13%	3%[46.1 µM]	28%
CC(=O)N1CCCc2cc(S(=O)(=O)Nc3ccc4c(c3)OCO4)ccc21	1%	3%	-2.9%	57%[activator]	?	?	11%	-8%
CCOc1ccc(Cl)cc1S(=O)(=O)N1CCC(C(=O)NCc2ccncc2)CC1	6%	-9%	.	8%	.	-9%	3%[46.1 µM]	1%[46.1 µM]
Cc1ccc(Cl)cc1NC(=O)C(C)n1nc(-c2ccccc2)ccc1=O (configuration not stated)	.	.	-5.5%	-2%	?	.	-1%[46.1 µM]	30%[46.1 µM]
O=C(NC1CCCC1)C1CCCN1C(=O)Nc1ccccc1Cl (configuration not stated)	12%	-20%	-0.1%	-2%	-8%	4%	13%	21%
CCOc1ccc(C(=O)NCc2nc3cccnc3n2Cc2cccc(OC)c2)cc1	.	.	-2.9%	-14%	5%	.	.	36%[46.1 µM]
O=C(O)c1nn(CCOc2ccccc2F)c(=O)c2ccccc12	0%	6%	.	-10%	.	-7%	-1%[46.1 µM]	-62%
O=C(/C=C/c1cccc(Br)c1)Nc1nn[nH]n1	1%	32%	.	-5%	.	-1%	9%	11%
CC(=O)N1CCc2cc(S(=O)(=O)CCC(=O)N3CCN(c4ccccc4)CC3)ccc21	-1%	-5%	.	-22%	.	-5%	-11%[46.1 µM]	16%[46.1 µM]
CCc1nnc(NC(=O)c2c(-c3ccccc3)noc2C)s1	2%	-15%	.	-9%	.	3%	2%[46.1 µM]	?
CN1CCN(Cc2c(F)cccc2Cl)CC1	1%	-1%	.	-4%	.	3%	.	.
Cc1ccc(NC(=S)N2CCN(CCN3C(=O)c4cccc5cccc(c45)C3=O)CC2)cc1	-3%	-2%	-2.3%	7%	?	7%	-20%	-4%
CCCCN(CCCNC(=O)c1ccc(Sc2ccc(Cl)cc2)c(NC(C)=O)c1)c1ccccc1	.	.	0.1%	-14%	5%	.	.	?
Cc1cccnc1-n1c(C)nc2ccccc2c1=O	.	4%	0.5%	-19%	-29%	2%	8%	15%
CC(C)NC(=O)CCCN1C(=O)c2ccccc2Sc2ncccc21	1%	1%	.	-6%	.	-2%	.	.
CCOC(=O)C1(Cc2ccccc2)CCCN(Cc2ccc(OCCO)cc2)C1 (configuration not stated)	1%	-11%	.	-12%	.	-1%	?	0%[46.1 µM]
O=C(O)C1CC(c2ccc(F)cc2)=NO1 (configuration not stated)	5%	-1%	-2.4%	.	-2%	9%	19%	26%
CC(=O)c1cccc(NC(=O)NC(C)C2CCCO2)c1 (configuration not stated)	3%	-6%	-2.9%	0%	4%	-2%	-13%	-4%
CN(C)/C=C/C(=O)c1cnc2n(c1=O)CCS2	3%	-23%	.	-19%	.	.	6%[46.1 µM]	1%[46.1 µM]
CCOc1ccc(N2C(=O)CN(C)C2=S)cc1	13%	.	-2.9%	-8%	-13%	21%	?	12%
O=C(COc1ccccc1F)N1CCCc2ccccc21	2%	0%	.	22%	.	6%	2%	16%
Additional entries
SMILES	SARS PLP yeast	RE007 growth inh	Cruzain inh Det	StopGo reporter	Cruzain noTriton	NS1 function inh	MARV entry inh	Lassa entry inh
CCOc1ccc2c(c1)c(=O)c(C(=O)c1ccc(CC)cc1)cn2CC(=O)Nc1ccc2c(c1)OCCO2	.	.	-0.9%	-18%	0%	.	?	-3%[46.1 µM]
Cc1ccc2c(c1)C(=O)OC1(O)C3C4C=CC(C4)C3C(=O)N21 (configuration not stated)	2%	-1%	.	3%	.	5%	.	.
CC(C)CC1C(C#N)=C(N)Oc2c1c(=O)oc1ccccc21 (configuration not stated)	7%	-6%	-5.9%	0%	-3%	1%	.	.
COc1ccccc1C(=O)N/N=C(\C)c1cccnc1	.	10%	.	24%	.	.	16%[46.1 µM]	10%
COc1ccc(CCNC(=O)COC(=O)c2ccccn2)cc1	-14%	-9%	.	5%	.	.	0%[46.1 µM]	8%[46.1 µM]
NC(=O)Cc1ccc2c(c1)[nH]c1ccccc12	0%	-1%	.	18%	.	0%	.	.
CS/C(=N\N(C)C(N)=O)c1ccccc1	-4%	6%	-1.4%	-15%	-4%	3%	23%	-2%
COC(=O)c1ccc(S(=O)(=O)N2CCc3ccccc3C2)cc1	6%	1%	.	14%	.	16%	.	.
COc1ccc(N2CCN(CCNC(=O)Nc3ccc(C)cc3Cl)CC2)cc1	-2%	-4%	.	-28%	.	2%	.	.
CCOC(=O)N1CCN(C(=O)C2CC(c3ccc(F)cc3)=NO2)CC1 (configuration not stated)	-5%	3%	1.4%	12%	-15%	-4%	.	.
CCOC(=O)c1nn2c(C(F)(F)F)cc(-c3ccc(C)cc3)nc2c1Cl	.	.	-0.4%	-13%	-14%	.	.	3%[46.1 µM]
COc1ccc(CCNC(=O)C2CCN(S(=O)(=O)c3ccc(Cl)cc3)CC2)cc1OC	13%	7%	0.0%	-23%	11%	1%	-10%	?
CCc1noc(C)c1C(=O)Nc1ccc(S(=O)(=O)N2CCC(C)CC2)cc1	-5%	-2%	.	-9%	.	.	-28%	-17%
CCC1(OC(=O)CN(C)C)C(=O)OCc2c1cc1n(c2=O)Cc2cc3c(N)cccc3nc2-1 (configuration not stated)	.	11%	.	-14%	.	.	.	?
Cc1ccc(-c2cc(C(=O)O)c3sc(N4CCCCC4)nc3n2)cc1	-7%	-7%	?	-19%	-1%	1%	?	-3%
COc1ccc(CC(=O)Nc2cccc(-c3ccc4nnc(C)n4n3)c2)cc1	-3%	-1%	.	-25%	.	.	?	13%[46.1 µM]
Cc1ccc(S(=O)(=O)Cn2nnnc2C(c2ccccc2)N2CCN(c3ccccc3)CC2)cc1 (configuration not stated)	-3%	4%	-4.4%	3%	?	?	?	-20%
CC(=O)c1c(C)[nH]c(C(=O)OCC(=O)Nc2ccc3c(c2)OCCO3)c1C	-2%	-29%	.	?	.	.	?	?
Cc1nn(-c2nc(-c3ccco3)cc(C(F)(F)F)n2)c(C)c1Cl	5%	-12%	0.6%	-14%	-3%	-5%	-1%	5%
O=C(O)CC(NC(=O)C1c2ccccc2Oc2ccccc21)c1ccc(Cl)cc1 (configuration not stated)	3%	9%	-3.5%	-17%	20%	4%	.	.
CCOCC(=O)OCC(=O)Nc1cc(OC)c([N+](=O)[O-])cc1C	1%	-2%	.	-9%	.	.	5%	11%
O=S(=O)(Nc1cccc(S(=O)(=O)N2CCCCCC2)c1)c1ccc(F)cc1F	2%	10%	.	2%	.	.	?	-21%[46.1 µM]
COCCNc1nc2ccccc2nc1NS(=O)(=O)c1ccc(C)cc1C	-4%	-2%	-4.0%	0%	5%	-7%	6%	5%
CCOC(=O)N1CCN(C(=O)CN(Cc2ccc(Cl)cc2)S(C)(=O)=O)CC1	-2%	-10%	6.6%	-18%	?	-3%	16%	-12%
COc1ccccc1NC(=O)C(C)Nc1ccc(C)c(Cl)c1 (configuration not stated)	-15%	22%	.	-23%	.	.	-7%	-8%
Other structures follow:
SMILES	SARS PLP yeast	RE007 growth inh	Cruzain inh Det	StopGo reporter	Cruzain noTriton	NS1 function inh	MARV entry inh	Lassa entry inh
CCn1c(SCC(=O)Nc2ccccc2C(=O)OC)nnc1-c1cccc(C)c1	-1%	16%	-11%	.	-6%	6%	-12%	1%
COc1ccc(N(C)S(=O)(=O)c2cccc(C(=O)OCC(=O)c3c(N)n(C)c(=O)n(C)c3=O)c2)cc1	-4%	-9%	.	22µM*	.	.	?	?
CCS(=O)(=O)n1nc(-c2ccc(Cl)cc2)nc1SCc1ccccc1	-82%	?	-7.8%	-4%	4%	0%	11%	?
COc1ccc2c(c1)N(C)/C(=C/c1cccc[n+]1C)S2	-4%	?	.	?	.	-3%	-2%	.
COc1cc(/C=N/NC(=O)c2ccoc2C)ccc1OCCN1CCCCC1	-3%	3%	.	1%	.	5%	.	.
COc1ccccc1NC(=O)NCCCN1CCN(c2ccc(F)cc2)CC1	.	.	1.9%	-1%	-13%	.	-7%[46.1 µM]	?
COc1ccc(-n2cc(C(=O)NC(C)c3ccccc3)c3ccccc3c2=O)cc1 (configuration not stated)	.	.	-12%	-4%	-10%	.	.	-1%[46.1 µM]
CCOC(=O)c1c(C)n(-c2ccccc2)c2ccc(OC(=O)c3cc(OC)cc(OC)c3)cc12	.	.	0.4%	-1%	8%	.	.	16%[46.1 µM]
CCCOc1ccc(Cc2nn3c(=O)/c(=C/c4ccco4)sc3nc2=O)cc1	?	-6%	-6.1%	-27%	10µM*	4%	0%	2%
Cc1ccc2c(=O)cc(CSc3ncn[nH]3)[nH]c2c1C	.	.	-0.7%	-18%	-13%	.	.	24%[46.1 µM]
CC(=O)Nc1cccc(C(=O)OCC(=O)c2ccc3c(c2)OCO3)c1	-2%	0%	.	-73%	.	.	?	?
CS(=O)(=O)Nc1ccc(C(=O)Nc2ccccc2Cl)cc1	0%	3%	.	9%	.	0%	15%[46.1 µM]	19%[46.1 µM]
CC(C)(CO)Nc1ccc([N+](=O)[O-])cc1[N+](=O)[O-]	-6%	-5%	-11%	-17%	-3%	-5%	-6%	-1%
CC(C)Oc1ccc(C(=O)NC(=S)Nc2ccc(Cl)c(C(=O)O)c2)cc1	2%	-9%	.	-13%	.	1%	?	-10%[46.1 µM]
CCOC(=O)N1CCC(NC(=O)CCC(=O)N2CC(C)Oc3ccc(C)cc32)CC1 (configuration not stated)	-1%	10%	6.8%	-25%	?	-1%	8%	16%
NC(=S)C1COc2ccccc2O1 (configuration not stated)	-1%	-3%	.	21%	.	3%	17%[46.1 µM]	-8%
